Mtb H37Rv = Mycobacterium tuberculosis H37Rv growth inhibition, cell based, confirmatory dose response (AID 1949) | 1.6% of 100,000 active | inhibition, % at 10 µg/mL; hits with a dose series show IC50 in µg/mL | M. tuberculosis H37Rv growth inhibition | most inactive calls were filed without a number and no value below 0 was filed;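 active means confirmed in a dose series; inconclusive means about 50% or more but not retested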;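 further: bacteria grown 7 days with compound before Alamar blue readout; 0% = untreated bacteria and 100% = reference antibiotic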
Numbers without * were called inactive; i = inactive; ? = inconclusive.

SMILES	Mtb H37Rv
COc1ccc(CCNC(=O)c2ccccc2NC(=O)c2ccccc2)cc1OC	4.1%
O=C(NC(=S)Nc1ccccc1)c1cccc(I)c1	i
Cc1ccn(C(=O)c2ccccc2[N+](=O)[O-])n1	i
O=C(Oc1ccc2c(c1)C1C=CCC1C(C(=O)O)N2)c1ccc(Cl)cc1Cl (stereo not given)	1.3%
COC(=O)C1=C(C)NC(C)=C(C(=O)OC)C1c1ccccn1	i
O=C(CCc1ccccc1)Nc1cc(Cl)c(O)c(Cl)c1	i
CCOC(=O)c1ccc(NC(=O)COc2ccc(Br)cc2C)cc1	i
COC(=O)C1=C(C)NC(=O)C1(c1c(C)[nH]n(-c2ccccc2)c1=O)C(F)(F)F (stereo not given)	i
CC(Oc1cccc(Cl)c1)C(=O)NC1CCCC1 (stereo not given)	i
COC(=O)Nc1ccc(S(=O)(=O)N2CCCC(C(=O)N3CCC(C)CC3)C2)cc1 (stereo not given)	i
COc1ccc(-c2csc3nc(C(C)(C)C)oc(=O)c23)cc1OC	i
COC(=O)c1c(NC(=O)c2ccncc2)sc2c1CCCCCC2	10.8%
CCC(CC)NCc1cc(OC)c(OC)cc1Br	i
CC1=CC(=C2C(=O)NC(=S)NC2=O)C=C(C(F)(F)F)N1CCc1ccccc1	i
CN(C)S(=O)(=O)c1ccc(C(=O)N(Cc2ccc3c(c2)OCO3)c2ccccc2F)cc1	i
O=C1CC(Cc2ccccc2)C(=O)N1Cc1ccco1 (stereo not given)	0.4%
CCCOc1ccc2c3c(c(=O)oc2c1OCCC)CCC3	37.5%
CC1(C)CC(=O)C2=C(C1)NC(Nc1nc3ccccc3s1)=NC21C(=O)Nc2ccccc21 (stereo not given)	i
CC(C)C(NC(=O)c1ccccc1)C(=O)NCCc1ccccc1 (stereo not given)	i
Cc1cc(C)nc(Nc2nc3ccccc3[nH]2)n1	i
CCN(C(=O)COc1ccc(Br)c(C)c1)c1ccccc1	1.6%
CCOC(=O)C1=CN(C(C)C)C=C(C(=O)OCC)C1c1cc(OC)ccc1OC	i
Cc1cc(=O)[nH]c(SCCC(=O)O)n1	i
CN(C)CCNC(=O)c1cc2cc(Br)ccc2oc1=O	?
Cc1cccc(-n2c(Cc3ccccc3)nnc2SCC(=O)c2ccc(Cl)cc2)c1	i
CN(C(=O)Cc1ccc(Br)cc1)c1ccccc1	i
Cc1ccc(CNC(=O)CN(c2cccc([N+](=O)[O-])c2)S(C)(=O)=O)cc1	i
CCC(C(=O)Nc1sc2c(c1C#N)CCC2)c1ccccc1 (stereo not given)	i
O=C(NC(=S)Nc1ccc2c(c1)OCCO2)c1ccccc1	i
O=Cc1cc(Br)ccc1OC(=O)Cc1ccc(F)cc1	i
CCOc1ccc(NC2CC(=O)N(c3ccc(N4CCOCC4)cc3)C2=O)cc1 (stereo not given)	3.3%
COC(=O)c1ccccc1NC(=O)C12CCC(C)(C(=O)C1)C2(C)C (stereo not given)	i
O=C(CC12CC3CC(CC(C3)C1)C2)NC(=S)Nc1ccc(NC(=O)Cc2ccccc2)cc1	i
CCC(C)c1ccc(NC(=S)Nc2cc(OCC(F)(F)C(F)F)cc([N+](=O)[O-])c2)cc1 (stereo not given)	?
Cc1cccc(COn2c(=O)c[n+]([O-])c3ccccc32)c1	i
O=C(NCc1ccc(F)cc1)c1cccnc1	i
COc1ccc(N2C(=O)CC(n3c(CCCCO)nc4ccccc43)C2=O)cc1 (stereo not given)	i
COc1ccc(NC(=O)C2COc3ccccc3O2)cc1OC (stereo not given)	4.7%
O=C(Cc1cccs1)Nc1cccc2ccccc12	i
COc1ccc(CN(CCC(c2ccccc2)c2ccc(OC(C)C)cc2)C(C)=O)cc1OC (stereo not given)	10.8%
Cn1c(-c2ccc(S(=O)(=O)O)s2)nc2ccccc21	1.3%
CCC(C)NCCCOc1ccc(F)cc1 (stereo not given)	i
O=C(CCCc1nc(-c2ccccc2Cl)no1)NCc1ccco1	3.8%
O=C1CC(N2CCN(C/C=C/c3ccccc3)CC2)C(=O)N1CCc1ccccc1 (stereo not given)	i
c1ccc(Nc2nc3ccccc3n3cnnc23)cc1	i
Cc1oc2cc(OCC(=O)Nc3ccccc3F)ccc2c(=O)c1-c1ccc(F)cc1	i
Cn1c(=O)c2c3c(sc2n2c(SCC(=O)NC(c4ccccc4)c4ccccc4)nnc12)CCCC3	0.9%
CSc1nnnn1-c1cccc(O)c1	3.0%
OC(COCc1ccc(Cl)cc1)CN1CCN(c2ccc(F)cc2)CC1 (stereo not given)	2.2%
Clc1cc(Cl)c(OCCCN2CCNCC2)c(Cl)c1	2.9%
c1ccc(-n2cnc3cc(NCc4ccncc4)ccc32)cc1	i
CCOc1ccc2nc(NC(=O)C3CC3)sc2c1	i
N#CCCn1cc(C(=O)O)c(-c2ccccc2)n1	i
Cc1nn(Cc2ccc(F)cc2)c(C)c1NC(=O)c1cc(-c2ccncc2)nc2c(Cl)cccc12	3.3%
CCOC(=O)COc1ccccc1C1CC(c2cccs2)=NN1C(C)=O (stereo not given)	i
COc1ccc(C2(C(=O)Nc3cc(C)ccc3OC)CCOCC2)cc1	i
Cc1cc2c(cc1C)NC(CC(=O)Nc1ccc(C(F)(F)F)cc1)C(=O)N2 (stereo not given)	i
COCCCNCCOCCOc1ccccc1-c1ccccc1	i
Cc1ccc(S(=O)(=O)N2CCC(C(=O)Nc3cc(C)cc(C)c3)CC2)cc1	i
CN(C)c1nc(N)nc(-c2nc3ccccc3s2)n1	i

Shown bar-delimited: four of the compounds above.
Molecule | Mtb H37Rv
COc1ccc(C2(C(=O)Nc3cc(C)ccc3OC)CCOCC2)cc1 | i
Cc1cc2c(cc1C)NC(CC(=O)Nc1ccc(C(F)(F)F)cc1)C(=O)N2 (stereo not given) | i
COCCCNCCOCCOc1ccccc1-c1ccccc1 | i
Cc1ccc(S(=O)(=O)N2CCC(C(=O)Nc3cc(C)cc(C)c3)CC2)cc1 | i

(cont.)
SMILES	Mtb H37Rv
COc1ccc(N(C(=O)C(C)C)S(=O)(=O)c2ccc(OC)c(OC)c2)cc1	i
Cc1cc(Cl)ccc1N(CC(=O)N1CCC(Cc2ccccc2)CC1)S(C)(=O)=O	9.5%
COc1cccc(C(=O)Nc2ccccc2C(=O)NC(C)C)c1	5.5%
COc1cc(NC(=O)N(C)C23CC4CC(CC(C4)C2)C3)cc(OC)c1OC	i
O=C(CC12CC3CC(CC(C3)C1)C2)N1CCN(c2ccc([N+](=O)[O-])c(NCc3ccco3)c2)CC1	9.5%
O=C(CCN1C(=O)C2C3CCC(C3)C2C1=O)Nc1ccc(Cl)cc1C(=O)c1ccccc1 (stereo not given)	i
O=C(c1cc2sc3ccccc3c2s1)N1CCCCCC1	12.6%
Cn1c(=O)c2c(ncn2Cc2cc3c(cc2Cl)OCO3)n(C)c1=O	i
Cc1cc(C)c(NC(=O)COc2ccccc2[N+](=O)[O-])c(Cl)c1	i
Cc1ccccc1CNC(=O)C(=O)NCCCOC(C)C	i
NC(=O)c1sc2nc(N3CCCCC3)c3c(c2c1N)CCCC3	22.6%
COC(=O)C1=C(C)N(C)C(=O)NC1c1cc(Br)c(O)c(OC)c1 (stereo not given)	8.4%
CCC(=O)Nc1cccc(C(=O)OC)c1	i
CSc1ccc(/C=C/c2nc(-c3ccccc3O)n[nH]2)cc1	4.5µg/mL*
COc1ccccc1NC(=O)C1=C(C)NC2=C(C(=O)CC(c3ccc(OC)c(OC)c3)C2)C1c1ccsc1 (stereo not given)	21.7%
Cc1ccc2c(c1)CCCN2C(=O)c1ccoc1C	5.6%
COc1ccccc1NC(=O)CSc1nnc(-c2ccco2)n1C	i
CCN(CC)C(=O)C(=O)Nc1ccccc1Br	i
CN(Cc1ccccc1)c1nc(-c2ccc([N+](=O)[O-])cc2)cs1	i
Cc1csc(NC(=O)C(Cc2ccccc2)N2C(=O)c3ccccc3C2=O)n1 (stereo not given)	i
COC(=O)c1cc(Cc2ccccc2)sc1NC(=S)Nc1ccn(C)n1	i
COc1ccc(C2CC(=O)C3=C(C2)Nc2ccccc2NC3c2ccc(OC)c(OC)c2)cc1 (stereo not given)	i
CC(C)(C)c1ccc(C(=S)N2CCN(c3ccccc3[N+](=O)[O-])CC2)cc1	5.3%
O=C(CSc1nnnn1-c1ccccc1)Nc1ccc(Br)cc1Cl	i
CCCc1nnc(NC(=O)COc2ccc(C(C)C)c(C)c2)s1	i
COc1ccc(C(=O)Nc2ccc(Cl)cc2C(=O)N2CCCCC2C)cc1 (stereo not given)	i
O=C(Oc1c(Cc2ccccc2)c(=O)oc2ccccc12)c1ccccc1Cl	i
O=C(NC(=S)Nc1ccc(-c2cc3ccccc3oc2=O)cc1)c1ccc2c(c1)OCO2	i
CN1CCN(C(=O)c2ccccc2NC(=O)CCCN2C(=O)c3ccccc3C2=O)CC1	i
Cc1ccc(C(=O)NC(=S)Nc2ccc(-c3ccc(CO)o3)cc2)cc1	17.2%

Some of the entries so far, with each value named:
CCCc1nnc(NC(=O)COc2ccc(C(C)C)c(C)c2)s1
  Mtb H37Rv = i

COc1ccc(C(=O)Nc2ccc(Cl)cc2C(=O)N2CCCCC2C)cc1 (stereo not given)
  Mtb H37Rv = i

O=C(Oc1c(Cc2ccccc2)c(=O)oc2ccccc12)c1ccccc1Cl
  Mtb H37Rv = i

O=C(NC(=S)Nc1ccc(-c2cc3ccccc3oc2=O)cc1)c1ccc2c(c1)OCO2
  Mtb H37Rv = i

Part of the list above in another layout.
SMILES,Mtb H37Rv
Cc1ccccc1CNC(=O)C(=O)NCCCOC(C)C,i
OC(COCc1ccc(Cl)cc1)CN1CCN(c2ccc(F)cc2)CC1 (stereo not given),2.2%
CCN(CC)C(=O)C(=O)Nc1ccccc1Br,i
COC(=O)C1=C(C)NC(C)=C(C(=O)OC)C1c1ccccn1,i
Cc1cccc(-n2c(Cc3ccccc3)nnc2SCC(=O)c2ccc(Cl)cc2)c1,i

Other records follow:
SMILES	Mtb H37Rv
Cc1ccc(Cl)cc1N1CCN(C(=S)NCCc2ccccc2)CC1	1.5%
CCOC(=O)CSc1nc2c(cc1C#N)CCCCC2	i
Cc1cccc(C(C)C)c1NC(=O)c1ccc(NS(=O)(=O)c2ccccc2)cc1	i
C=CCOc1cccc(/C=C(/C#N)c2cccc(C#N)c2)c1	i
COC(=O)C(C)Oc1cc(C)cc2oc(=O)cc(C)c12 (stereo not given)	i
O=[N+]([O-])c1ccc(N2CCN(S(=O)(=O)c3ccc(F)cc3)CC2)cc1NCCc1ccccc1	0.5%
O=C(CSc1ccc(Cl)cc1)Nc1nccs1	i
CS(=O)(=O)N(CC(N)=O)c1ccc2c(c1)OCO2	i
O=C(NCc1ccc2c(c1)OCO2)c1ccc([N+](=O)[O-])cc1	i
COc1ccc(C(=O)NNC(=S)NCC(C)C)c(OC)c1	i
Nc1cc2c(cc1C(=O)c1ccccc1Cl)OCCO2	i
CCCc1oc2c(c(=O)c1CC)C(=O)CC(C)(C)C2	0.4%
O=C(CC1CCCCC1)N1CCN(c2ccccc2)CC1	i
FC(F)(F)C1CC(c2cccs2)Nc2ncnn21 (stereo not given)	i
CC(CC(=O)Nc1nnc(C(F)(F)F)s1)c1ccccc1 (stereo not given)	i
COc1ccc(C2(CNC(=O)c3ccc(NC(=O)c4ccco4)cc3)CCOCC2)cc1	i
Cc1c(Cc2ccccc2)sc(NC(=O)CCCOc2ccc(Cl)cc2Cl)c1C(N)=O	0.8%
CCc1cc2c(=O)c(Oc3ccc(-c4ccccc4)cc3)coc2cc1OC(C)=O	5.89µg/mL*
N#CCN(CC#N)C(=O)c1cccc(F)c1	i
c1ccc(-c2cc(-c3ccccn3)nnc2-c2ccccn2)cc1	i
Cc1ccc(-n2c(C)nnc2SCc2ccc([N+](=O)[O-])cc2)cc1	i
NS(=O)(=O)c1ccc(CNC(=O)CSCc2ccccc2)cc1	i
COc1ccc(-c2cccc(C(=O)NO)c2)cc1	i
CON(C)C(=O)Nc1ccc(Cl)cc1	i
COc1ccc(CCCc2nnc(SCC(=O)Nc3cccc(SC)c3)n2C)cc1C	i
O=c1[nH]c(SCc2c(Cl)cccc2Cl)nc2ccccc12	i
CCOC(=O)N1CCc2c(sc(NC(=O)COc3ccccc3OC)c2C(=O)Nc2ccc(OCC)cc2)C1	0.4%
CCOC(=O)c1c(NC(=O)C2CC3CCC2C3)sc2c1CCC2 (stereo not given)	12.0%
CCOc1ccc(S(=O)(=O)N(CC(=O)Nc2ccccc2-c2ccccc2)c2ccccc2)cc1	2.5%
CCc1ccc(N(CC(=O)Nc2cccnc2)S(=O)(=O)c2ccccc2)cc1	2.2%
COc1ccc(C(=O)Nc2ccccc2C(=O)NCCc2ccccc2)cc1	i
COc1ccc(S(=O)(=O)N2CCC(C(=O)Nc3cccc(Br)c3)CC2)cc1C	i
Cc1nn(Cc2ccc(C(=O)Nc3ccccc3C(F)(F)F)o2)c(C)c1Br	i
Cc1cc(C)nc(NC(N)=NC2CCCCC2)n1	i
COc1cc(OC)c(C2=NOC(C(=O)Nc3cccnc3)C2)cc1Cl (stereo not given)	i
CCNC(=O)c1cc(Cl)c(OCc2ccccc2)c(OC)c1	4.6%
CCOc1cc(C=O)cc(Cl)c1OC(=O)c1ccco1	i
O=C(CN1CCOCC1)C12CC3CC(CC(C3)C1)C2	i
O=C(Nc1sccc1C(=O)NCc1ccco1)c1cccnc1	i
CS(=O)(=O)NCCC1=CCCCC1	1.4%
CC(=O)N(C)c1ccc(NC(=O)c2ccco2)cc1	i
COCCCNC(=S)Nc1c(C)nn(Cc2ccc(F)cc2)c1C	i
Cc1cc(N2CCCC2)c(C)cc1/C=C\[N+](=O)[O-]	i
OCc1ccc(OCc2cccc3ccccc23)c(Br)c1	i
CCOC(=O)c1c(NC(=S)Nc2cnccn2)sc2c1CCCCCC2	i
O=C(COc1ccc(Br)cc1)N1CCN(Cc2c[nH]c3ccccc23)CC1	i
NC(=O)c1c(NC(=O)c2cc(I)ccc2Cl)sc2c1CCCCC2	i

This is a subset. The share of hits here may be higher or lower than overall.
